Beta apoptosis: inhibitors of cytokine-induced beta cell apoptosis, primary screen, luminescence; INS-1E cytokine-induced death, ATP luminescence, 48 h; percent of positive-control rescue, neutral wells zero; protection from apoptosis, % (no concentration beside the values); actives 0.8% (n = 300,000);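 active = all replicates at 75% or more, or half of them and the mean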;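 also: 0% = cytokine-treated negative control wells and 100% = positive control rescue; higher means more ATP so stronger rescue from cytokine killing; wells of about 40 µL received 100 nL stock; the first replicate is given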
FGF22 binding: binders of human FGF22 protein, primary screen, FGF22 synaptogenesis inhibitor project, biophysical, thermal shift, single point | recombinant FGF22 thermal shift, SYPRO orange fluorescence; percent of sucrose octasulfate shift, DMSO zero | calls only at 9.99 µM | actives 1.5% (n = 340,000) | AID 651658, 2012;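 active = melting point raised past a set limit in the mean and every replicate; three in four hits are not shown here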
Target sequence (Q9HCT0 whole entry, looked up): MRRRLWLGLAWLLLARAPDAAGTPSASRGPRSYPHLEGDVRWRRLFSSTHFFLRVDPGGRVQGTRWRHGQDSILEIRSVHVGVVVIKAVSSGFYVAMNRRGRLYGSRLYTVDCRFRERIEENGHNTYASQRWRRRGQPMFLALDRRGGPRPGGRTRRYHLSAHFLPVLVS
Ecoli rRNA inh: reduced GFP signal of wild-type E. coli, primary screen, bacterial rRNA inhibitor project, GFP/RFP fluorescence, OD600, single point. E. coli WT GFP vs humanized-ribosome RFP mutants, 24 h; stronger effect = lower value; DMSO median 0, no signal -100. GFP signal change (wild-type ribosome), % (no concentration beside the values). actives 1.6% (n = 350,000). AID 720706, 2013;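 active = significant combined selectivity score with lowered wild-type GFP, culture density cut under 30%, mutant RFP and density less affected; inactive = any of these conditions unmet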; also: one replicate is shown; some compounds called inactive have numbers as strong as hits
UCH37 DUB inh: inhibitors of human UCH37 deubiquitinase, primary screen, biochemical, Ub-AMC cleavage, fluorescence; purified proteasome/UCH37; Ubiquitin carboxyl-terminal hydrolase isozyme L5 (Homo sapiens), Q9Y5K5; actives 0.33% (n = 330,000); inhibition, % (test concentration not listed);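 active = mean of two replicates above 20%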;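 also: 0% = compound-free wells with enzyme and 100% = wells lacking proteasome; stock transfer was 100 nL into about 20 µL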
Target sequence (Q9Y5K5 whole entry, looked up): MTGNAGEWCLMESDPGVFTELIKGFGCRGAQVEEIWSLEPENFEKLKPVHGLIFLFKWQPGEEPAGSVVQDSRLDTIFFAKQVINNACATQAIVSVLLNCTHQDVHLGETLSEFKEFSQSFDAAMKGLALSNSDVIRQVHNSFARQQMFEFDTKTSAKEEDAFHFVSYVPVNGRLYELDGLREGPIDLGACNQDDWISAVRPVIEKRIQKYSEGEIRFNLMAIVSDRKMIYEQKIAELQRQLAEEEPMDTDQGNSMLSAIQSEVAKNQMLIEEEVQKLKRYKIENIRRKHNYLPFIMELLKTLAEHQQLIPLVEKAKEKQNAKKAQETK
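Material: human UCH37 enzyme supplied as purified proteasome complex. Measure: % inhibition of Ub-AMC cleavage fluorescence. Medium: pH 7.4 Tris-HCl (50 mM) with ovalbumin, ATP-MgCl2, DTT. Times: 30 min preincubation with enzyme, 25 min cleavage at room temperature. Detection: AMC fluorescence intensity at 355/460 nm.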
A1 inh: caspase 3/7 activation in MEF A1-2A-BIM cells, primary screen, A1 inhibitor project, cell-based, luminescence, HTS; Caspase-Glo 3/7 luminescence, 3 h; percent of clofoctol response, vehicle zero; actives 0.066% (n = 330,000); caspase activation, % (concentration not given with the values);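 active = over half of replicate activation scores above 10%, or exactly half above 10 with the replicate mean above 10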;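 also: wells of about 30 µL received 50 nL stock; many hits fall short of the cut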
T cruzi inh: inhibitors of intracellular T. cruzi growth, primary screen, luminescence, NIH3T3 host cells | T. cruzi beta-gal in NIH3T3, 90 h | inhibition, % (concentration not given with the values) | actives 1.4% (n = 300,000);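 active = mean inhibition across valid replicates above about 55%, limit read from the data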;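 also: signal also drops with host cell toxicity which is not excluded here; 0% = plate median of DMSO wells and 100% = zero luminescence signal; higher percent means less beta-gal luminescence so fewer parasites; stock transfer was 50 nL into about 50 µL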
AF4-AF9 inh: inhibitors of AF4 peptide binding to AF9, primary screen, biochemical, AlphaScreen, biotin-AF4 peptide, FLAG-AF9, single point; actives 0.47% (n = 350,000); inhibition, % at 10 µM; Protein AF-9 (Homo sapiens), P42568; AID 651704, 2012;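 active = every replicate reaching a set inhibition limit, whatever the replicate mean, cut at about 25% in these data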;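 also: 0% = plate neutral control median and 100% = total signal loss; the record names both 10 and 1 µM as test concentration; the first replicate is given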
Target sequence (P42568 whole entry, looked up): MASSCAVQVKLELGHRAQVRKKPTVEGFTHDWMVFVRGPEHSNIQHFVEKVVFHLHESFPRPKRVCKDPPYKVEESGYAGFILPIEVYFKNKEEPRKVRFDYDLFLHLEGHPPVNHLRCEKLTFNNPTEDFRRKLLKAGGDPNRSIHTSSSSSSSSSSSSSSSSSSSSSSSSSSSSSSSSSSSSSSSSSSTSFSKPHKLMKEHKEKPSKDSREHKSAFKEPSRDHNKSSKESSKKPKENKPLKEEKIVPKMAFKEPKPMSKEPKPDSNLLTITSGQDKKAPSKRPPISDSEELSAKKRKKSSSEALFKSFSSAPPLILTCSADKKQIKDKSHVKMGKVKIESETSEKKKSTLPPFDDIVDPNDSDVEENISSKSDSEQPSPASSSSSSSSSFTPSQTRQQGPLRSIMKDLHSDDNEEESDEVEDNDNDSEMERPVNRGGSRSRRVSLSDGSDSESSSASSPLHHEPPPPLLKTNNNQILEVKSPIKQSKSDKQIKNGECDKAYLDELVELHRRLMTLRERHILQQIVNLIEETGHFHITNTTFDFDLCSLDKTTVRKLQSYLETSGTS
Ecoli growth: E. coli growth inhibition, primary screen, OD600 | Escherichia coli growth, 23 h; stronger effect = lower value | OD600 absorbance (concentration not given with the values) | actives 0.21% (n = 330,000);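 active = OD600 absorbance below the run mean of sample wells minus 3.6 SD, in any replicate, cut at about 0.56 in these data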;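 also: stock transfer was 300 nL into about 60 µL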
Ecoli rRNA inh OD600: further read-out of Ecoli rRNA inh, marked with its call; OD600 change, %; measured here: OD600 growth;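 optical density of the mix in the first replicate; 0 = DMSO median and -100 = no signal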
Ecoli rRNA inh RFP: recorded beside Ecoli rRNA inh, whose call it bears; RFP signal change, %; measured here: RFP humanized mutant strains;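 first replicate; 0 = DMSO median and -100 = no signal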
Numbers without * were called inactive; i = inactive; · = no result given; & = joins results of further samples.

SMILES	Beta apoptosis	FGF22 binding	Ecoli rRNA inh	Ecoli rRNA inh OD600	Ecoli rRNA inh RFP	UCH37 DUB inh	A1 inh	T cruzi inh	AF4-AF9 inh	Ecoli growth
O=C(NC(=S)Nc1ccc(O)cc1)c1cncc(Br)c1	1	i	-7	-10	0.2	4.6	-0.3	-3	3.2	0.66
O=C(CCn1c(=O)sc2ccccc21)NCCN1CCOCC1	-3	i	12	10	1.1	3.7	-0.1	-23	4.9	0.76
CN(Cc1cnn(C)c1)C(=O)CC1C(=O)NCCN1Cc1cccc(Oc2ccccc2)c1 (stereo not given)	-8	i	9	6	0.6	-0.8	-1.3	14	0.6	0.65
O=C(CC1C(=O)NCCN1Cc1cccc(C(F)(F)F)c1)NC1CCOCC1 (stereo not given)	-8	i	6	1	-3.0	-8.8	0.0	-23	-9.6	0.72
O=C(C1CCC1)N1CCc2cc(S(=O)(=O)N3CCCCC3)ccc21	-4	·	4	14	-2.3	4.0	0.7	0	·	0.68
COc1ccc(CNC(=O)c2cnc(C)cn2)cc1	-9	·	·	·	·	2.1	-1.0	-14	·	·
O=C(C1=C[C@H](c2coc3ccccc3c2=O)C[C@H](OCCCCO)O1)N1CCOCC1	-5	i	5	4	-2.3	-0.3	-0.7	-22	-0.1&0.6	·
Cc1ccc2oc(C(=O)N3CCC(O)(c4ccccc4)CC3)c(C)c2c1	-9	i	-28	-70	0.2	4.8	0.2	13	-1.4	0.68
CC1CCCN(S(=O)(=O)c2cccc(C(=O)NCC3CCCO3)c2)C1 (stereo not given)	-4	i	·	·	·	1.9	1.2	·	0.3	0.67
O=C(CN(c1ccc(F)cc1)S(=O)(=O)c1ccc2c(c1)OCCO2)NCc1cccnc1	-7	·	0	-1	0.1	-3.3	0.1	-14	·	0.68
Cn1c(=O)c(Sc2ccc(Cl)cc2)c(O)c2ccccc21	-6	·	·	·	·	-4.2	-0.4	-17	·	0.71
Cn1c2ccccc2c2cc(C(=O)O)ccc21	-1	·	·	·	·	-1.8	0.4	27	·	0.65
C[N+](C)(C)CC/C=C1/c2ccccc2CSc2ccccc21	-3	·	·	·	·	1.1	1.0	-4	·	0.73
c1ccc(-c2nnc(-c3ccco3)o2)cc1	·	·	·	·	·	0.4	-9.5	6	·	0.66
Cc1ccc(S(=O)(=O)N2CCOCC2)cc1NC(=O)CSc1nnc2n1CCCCC2	-10	i	12	13	-2.5	1.5	-0.1	·	-1.1	0.67
COC(=O)c1ccccc1-c1cn(C)c2ccccc2c1=O	-1	i	3	5	-0.3	-75	0.0	-13	1.5	0.67
COc1ccc(CNC(=O)C2CCN(S(=O)(=O)N3CCOCC3)CC2)cc1	-2	·	·	·	·	3.2	0.4	-7	·	0.7
COc1ccc(Cn2c(=O)[nH]c3cc(C(=O)NCCCN4CCCC4=O)ccc3c2=O)cc1	-2	·	·	·	·	1.2	-0.1	-6	·	0.66
CC1(C)CC(=O)c2cc(C(=O)NC3CCSC3=O)c(=O)n(-c3ccc(Cl)cc3)c2C1 (stereo not given)	-4	·	·	·	·	-4.8	-0.1	-2	·	0.73
CCC(=O)Nc1ccc2nn(-c3ccc(F)cc3)nc2c1	1	i	1	9	1.0	·	-4.5	55*	-2.4	·
COc1ccc(/C=C/C(=O)NCCc2c[nH]c3ccccc23)cc1OC	7	i	-32	-37	-3.8	2.5	0.6	14	6.4	0.69
C/C(Cn1nnc([N+](=O)[O-])n1)=N\NC(=O)c1ccccc1O	16	i	-4	10	6.1	·	-0.3	43	2.0	·
CCn1c(C)[n+](CC)c2ccc(C(=O)N(C)c3ccccc3)cc21	-6	i	27	14	3.3	3.7	2.4	-3	-2.8	0.65
CCn1c(CC(=O)Nc2ccccc2)nnc1SCC(=O)NC1CCCC1	-3	i	-2	-3	0.3	0.3	2.0	-3	-2.1	0.65
CC(=O)Nc1ccccc1NS(=O)(=O)c1ccc(Cl)cc1	-10	·	·	·	·	1.1	-0.1	-1	·	0.69
Cc1cccc2[nH]c(CN(C)C(=O)CC3C(=O)NCCN3CC(C)(C)C)nc12 (stereo not given)	-2	i	10	1	0.3	-2.0	1.4	2	0.4	0.7
O=C(COC(=O)COc1ccc(Br)cc1)Nc1ccc2c(c1)OCCO2	2	i	5	5	-1.7	0.2	-0.2	·	-0.7	0.69
Cc1cc(NC(=O)c2ccccc2-c2ccccc2)ccc1Br	10	·	·	·	·	4.9	-0.1	29	·	0.71
COc1ccc(/C=N/OCc2ccccc2C#N)c(OC)c1	·	i	5	7	0.8	·	0.4	3	-0.7	·
COc1ccc(C(=O)Nc2ccc(N3CCN(C)CC3)cc2)cc1[N+](=O)[O-]	-1	i	14	12	-2.4	3.8	0.4	10	-0.1	0.68
Cc1cc(C)c2nc(N3CCC(C(=O)NCCCN4CC(C)CC(C)C4)CC3)sc2c1 (stereo not given)	51	i	·	·	·	4.7	0.5	59*	3.6	0.67
C=CCn1c(=O)c2ccccc2n2c(SCc3csc(-c4ccccc4)n3)nnc12	2	·	0	4	-2.0	-0.7	1.2	9	·	0.71
CCOC(=O)CC1(NC(=O)C2CCC(=O)N(CCc3ccc(OC)cc3)C2)CCCCC1 (stereo not given)	-1	i	1	-1	-3.6	0.7	-0.1	-5	1.7	0.71
Cc1c(N2C(=O)CSC2c2ccc(F)cc2)c(=O)n(-c2ccccc2)n1C (stereo not given)	-3	i	·	·	·	2.5	0.6	-1	1.8	0.64
CCOc1ccc(CNc2nc3ccccc3n2C)cc1	·	·	-13	-18	4.7	-1.8	-8.4	12	-4.6	0.61
O=C(O)/C=C/S(=O)(=O)c1ccc2ccccc2c1	-16	i	15	2	-6.8	2.7	-0.2	-8	4.7	0.72
CCn1c2ccccc2c2cc(C3C(C#N)=C(N)Oc4n[nH]c(COC)c43)ccc21 (stereo not given)	-14	·	·	·	·	-5.6	0.3	-14	·	0.72
Cc1cccc(C)c1OCc1cc(C(=O)N2CC3C[C@@H]4CC2C[C@H](C3)C4)no1	3	i	-56	-75	-11	1.5	-3.1	37	-3.1	0.67
O=C(CSC1=NCCS1)c1ccc(Cl)cc1	-13	i	12	3	12	2.6	-1.3	-15	-0.2	0.72
COC(=O)Cc1ccc(NC(=S)NCCSc2ccc(Cl)cc2)cc1	4	i	-45	-38	-6.8	3.5	-0.2	12	2.1	0.62
COC(=O)c1sc(S(=O)(=O)N2CCCCC2C(=O)O)c(C(=O)OC)c1C (stereo not given)	8	·	·	·	·	1.7	-0.6	-7	·	0.75
COc1ccc(Cn2c(O)c(C=Nc3ccc(OC)cc3)c3ccccc3c2=O)cc1	-3	·	·	·	·	-3.5	0.4	35	·	0.74
Cc1cccc(C)c1NC(=O)CN1N=NC2C(=O)N(c3cccc(Cl)c3)C(=O)C21 (stereo not given)	-4	i	-18	-12	0.6	2.6	-0.2	-5	-83	0.72
CSc1nnc(C2CCCN(CC(=O)Nc3ccccc3N3CCOCC3)C2)n1C(C)C (stereo not given)	1	i	12	10	-1.2	4.9	0.1	-6	1.3	0.71
CSc1nnc(N2C(=O)C(O)=C(C(=O)c3ccco3)C2c2ccccc2)s1 (stereo not given)	-6	i	1	-10	7.0	4.6	-0.3	-4	-2.3	0.66
O=S(=O)(N/N=C1\CCCc2ccccc21)c1ccccc1	1	i	-2	-2	3.0	·	0.0	·	-2.2	·
Cc1cc(Cl)cc(Cl)c1CNc1c([N+](=O)[O-])c(=O)oc2ccccc12	·	i	·	·	·	4.5	-0.1	-1	-6.0	0.74
COc1cc(-n2c(=O)c3ccccc3n(Cc3ccccc3)c2=O)cc(OC)c1OC	-5	·	·	·	·	4.7	0.3	5	·	0.71
CCCCn1c(SCC(=O)N(C)C)nnc1-c1ccncc1	1	i	9	3	-9.3	2.7	-0.2	-10	-1.3	0.62
CCCCN1C(=O)C(=O)NC[C@@H]1C(C)O (stereo not given in full)	-21	i	10	22	1.6	1.6	0.9	-2	3.7	·
COc1cc(NC(=S)NC(=O)c2cccs2)ccc1NC(=O)C(C)C	0	i	0	-3	1.7	·	1.3	-11	6.6	·
Cc1ccc(-n2ncc3c(=O)n(CC#N)cnc32)cc1	-1	·	·	·	·	1.0	0.2	-1	·	0.72
Nc1nonc1-n1nnc(C(=O)N/N=C/c2cc(Br)ccc2O)c1CNc1ccccc1	97*	i	3	11	-4.0	·	0.6	59*	0.4	·
CC(C)n1nccc1N(Cc1ccc(C#N)cc1)S(=O)(=O)c1ccccc1	-3	i	-1	0	-3.1	2.9	0.7	15	1.6	0.71
Cc1cccc(NC(=O)CSc2ccc3nnc(-c4cccnc4)n3n2)c1	2	i	-6	12	-0.8	4.4	-0.7	-1	4.9	0.71
Cc1cc(NC(=O)CCC(=O)N(Cc2ccco2)C(C(=O)NC2CCCC2)c2ccccc2C)no1 (stereo not given)	0	·	·	·	·	6.0	0.1	-4	·	0.74
O=C(NC1CCN(Cc2ccccc2)CC1)c1ccccc1	·	i	11	17	5.4	1.5	0.3	56*	-1.0	0.63
COc1cccc(/C=C/C(=O)OCC(=O)Nc2cc(S(=O)(=O)N3CCOCC3)ccc2C)c1	·	i	·	·	·	-18	0.0	17	2.8	0.71
CCN1CCN(C(=O)CCc2nc3ccccc3n2-c2ccccc2)CC1	-15	·	·	·	·	0.8	-0.8	4	·	0.71
CC1Nc2ccccc2C(=O)N1NS(C)(=O)=O (stereo not given)	-12	i	15	7	0.3	i	0.2	-28	-0.4	0.71
COc1ccc(C(=O)NC(C)c2cc(OC)c(OC)cc2Br)cc1 (stereo not given)	0	·	·	·	·	-1.2	-0.3	2	·	0.67
CCN1C(=O)C2C(C1=O)N1C(c3cccs3)C3C(=O)N(CC)C(=O)C3N1C2c1cccs1 (stereo not given)	3	·	·	·	·	1.7	1.1	6	·	0.68
CS(=O)(=O)N1CCc2cc(C(=O)N3CCN(c4ccc(F)cc4)CC3)ccc21	2	i	1	2	1.3	4.2	-0.6	-13	-4.4	0.69

Laid out differently: entries from further up.
Under each structure: Beta apoptosis	FGF22 binding	Ecoli rRNA inh	Ecoli rRNA inh OD600	Ecoli rRNA inh RFP	UCH37 DUB inh	A1 inh	T cruzi inh	AF4-AF9 inh	Ecoli growth
> O=C(NC1CCN(Cc2ccccc2)CC1)c1ccccc1
 : ·	i	11	17	5.4	1.5	0.3	56*	-1.0	0.63
> Cc1cccc(C)c1NC(=O)CN1N=NC2C(=O)N(c3cccc(Cl)c3)C(=O)C21 (stereo not given)
 : -4	i	-18	-12	0.6	2.6	-0.2	-5	-83	0.72
> CCN1CCN(C(=O)CCc2nc3ccccc3n2-c2ccccc2)CC1
 : -15	·	·	·	·	0.8	-0.8	4	·	0.71

Some of the compounds tested, so the mix of outcomes need not match the whole.
